Screening results from PubChem BioAssay.
GIV-Gai inh: blocks GIV peptide binding to rat Galpha-i3 | P08753 | Galpha-i3/FITC-GIV peptide fluorescence polarization, 90 min; active compounds read low; scaled: aluminum fluoride 0%, vehicle 100% | percent of control (FP), % (test concentration not listed) | 210,000 compounds, 0.42% hits;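 active = replicate mean at 85% of control or lower, very high polarization wells dropped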;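 note: lower values mean more displacement of the GIV peptide from Galpha-i3; wells of about 15 µL received 100 nL stock; the first replicate is given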
Target sequence (P08753 whole entry, looked up): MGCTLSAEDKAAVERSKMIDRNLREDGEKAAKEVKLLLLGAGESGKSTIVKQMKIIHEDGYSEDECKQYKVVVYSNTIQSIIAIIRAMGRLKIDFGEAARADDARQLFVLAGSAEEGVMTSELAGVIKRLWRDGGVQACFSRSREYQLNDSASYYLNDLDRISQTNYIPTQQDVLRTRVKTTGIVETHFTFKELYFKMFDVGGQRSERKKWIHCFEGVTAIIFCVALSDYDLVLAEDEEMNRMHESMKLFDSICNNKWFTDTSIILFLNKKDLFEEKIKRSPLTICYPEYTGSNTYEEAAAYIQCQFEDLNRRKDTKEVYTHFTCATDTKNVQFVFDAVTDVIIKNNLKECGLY
HCMV NEC inh: inhibitors of HCMV UL50-UL53 nuclear egress complex interaction; HTRF UL50-UL53 interaction, normalized percent inhibition; inhibition, % (no concentration beside the values); 190,000 compounds, 0.15% hits;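 active = both replicates at 50% or more, plus weaker picks with an unusually low signal ratio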;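 note: stock transfer was 100 nL into about 20 µL; 0% = negative control wells and 100% = wells with untagged competitor protein; inactives centre near -12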
Sa growth inh: blocks Staphylococcus aureus growth. relative growth, % (test concentration not listed). AID 720641. 170,000 compounds, 0.53% hits. S. aureus RN4220 growth, OD600, 20 h, 42 °C; active compounds read low;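 active = growth at 42 °C up to 50% and 20 or more points under that at 30 °C, or under 10% at both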;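 note: 300 nL library stock went into each well; scaled to the means of positive and negative controls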
Sa growth inh second temp: recorded beside Sa growth inh, whose call it bears; relative growth, %; measured here: growth at 30 °C;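 optical density after 20 h as mean of two plates; 100% = untreated growth and lower means inhibition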
* hit, by the source's call; · = not tested or not shown; & = joins results of further samples.

SMILES	GIV-Gai inh	HCMV NEC inh	Sa growth inh	Sa growth inh second temp
CCc1ccc(NC(=O)c2ccc(F)c(S(=O)(=O)N3CCc4ccccc4C3)c2)cc1	100	·	96	92
CC(C)(C)c1cc2nc(N)nc(N)n2n1	104	14	98	94
CCN(CCN)c1ccc2c(=O)[nH][nH]c(=O)c2c1	103	3	97	84
CC(C)N1C(=O)C(O)(c2nnc(-c3ccccc3)o2)c2ccccc21 (stereo not given)	·	-14	102	93
c1ccc2sc(SN3CCOCC3)nc2c1	·	-6	36	29
CCN1C(=O)C(CC(=O)Nc2ccc(C(=O)OC)cc2)N(CCN2CCOCC2)C1=S (stereo not given)	109	-14	115	90
CCCCN(CC)C(=O)c1c[nH]c2ccc(S(=O)(=O)N(C)c3ccc(Cl)cc3)cc2c1=O	104	·	112	80
COC(=O)c1sc2nc(C)cc(C)c2c1N	104	-96	99	82
CCOC(=O)c1cc(=O)c2ccc(OCC(=O)Nc3ccc4c(c3)OCCO4)cc2o1	107	-20	81	83
Cc1c(CC(=O)O)sc2ccc(Cl)cc12	108	-2	124	100
CCc1ccccc1NC(=O)COCc1cc(-c2ccco2)on1	99	·	92	91
CCc1nnc(NS(=O)(=O)c2ccc(NC(=O)CCCN3C(=O)c4cccc5cccc(c45)C3=O)cc2)s1	104	-90	·	·
Brc1ccc(OCc2cn3ccccc3n2)cc1	·	-41	121	88
COc1cc2sc(=NC(=O)CCS(=O)(=O)c3ccccc3)n(C)c2cc1OC	103	0	102	95
CN1CCN(CCNC(=O)c2cnn(-c3ccccc3)c2-n2cccc2)CC1	101	·	110	90
COc1cccc(OCCCn2c(-c3ccc(Cl)cc3)nc3ccccc3c2=O)c1	108	2	111	103
Cc1ccc2c(c1)c1nc3ccccc3nc1n2CC#N	104	-4	87	84
Cc1ccc(S(=O)(=O)Nc2ccc(N=NN3CCCCC3)cc2)cc1	98	-35	49	32
Cc1cc(C)cc(-n2c(=O)c3oc4ccccc4c3n(Cc3ccc(F)cc3)c2=O)c1	102	-18	98	77
Cc1ccccc1OCC(=O)Nc1nn2c(C)nnc2s1	107	23	94	94
CCOC(=O)C1=NN(c2ccccc2)C(=O)C1	101	-22	104	81
CC(C)(C)c1ccc(CN2C(=O)N(c3cc(F)ccc3F)S(=O)(=O)c3ccccc32)cc1	104	-7	·	·
Clc1cccc(-n2ncc3c(N4CCN(Cc5ccccc5)CC4)ncnc32)c1	105	·	84	82
CCOC(=O)Cc1c(C)nc2c(-c3ccccc3)c(-c3ccccc3)[nH]n2c1=O	102	-5	·	·
CCC(C)(C)NC(=O)C1CCC(=O)N1S(=O)(=O)c1ccc(C)cc1 (stereo not given)	102	-6	·	·
SMILES	GIV-Gai inh	HCMV NEC inh	Sa growth inh	Sa growth inh second temp
CN(C)c1ccc(C2NCC(CCl)O2)cc1 (stereo not given)	·	-61	108	88
CCCCN(C)CCCNC(=O)Cn1ncc2c3ccccc3n(Cc3cc(C)ccc3C)c2c1=O	103	10	109	94
Cc1ccc(N2COc3cc4c(cc3C2)OCO4)cc1C	104	·	105	85
CC(Oc1ccc(Br)cc1)C(=O)N1CCCCC1 (stereo not given)	103	-15	105	98
CCCc1oc2ccc(NS(=O)(=O)c3ccc(OCC)cc3)cc2c1C(=O)OCC	105	-16	97	82
CSc1cccc(NC(=O)/C=C/c2ccccc2)c1	114	-1	104	103
O=C(c1cn(-c2ccccc2)nc1-c1cccnc1)N1CCOCC1	·	0	74	93
COc1ccc(NC(=O)c2cc3nc(-c4cccs4)cc(C(F)(F)F)n3n2)c(OC)c1	98	-8	·	·
Cc1nn(-c2ccc3nnc(C)n3n2)c(C)c1CCC(=O)O	101	·	93	91
Cc1cc(SCC(=O)N(C)C)nc2ccccc12	·	-32	101	86
CC(C)N1C(=O)C(O)(CC(=O)c2ccccc2Br)c2ccccc21 (stereo not given)	·	-17	105	89
CCS(=O)(=O)Nc1ccc(-c2cn3c(C)csc3n2)cc1	106	·	88	92
Cn1c(CN2CCOCC2)nc2cc(NS(=O)(=O)c3ccc(F)cc3)ccc21	100	·	96	84
COc1ccc(/C=C/C(=O)Nc2c3c(nc4c2CCC4)CCCC3)cc1OC	101	·	104	81
CC(=O)N(C)c1ccc(N=C2C(=O)Nc3ccc(C)c(Br)c32)cc1	·	-6	85	85
CCCN(CCC)C(=O)CCc1c(C)nc2c(c(C)nn2-c2ccc(C)cc2)c1C	102	·	92	91
CSc1cccc(NC(=O)c2cccc(CS(C)(=O)=O)c2)c1	·	4	112	90
CC(=NCc1ccccc1)c1sc2ccccc2c1O	·	-27	112	98
CCN1C(=O)/C(=C\c2cccs2)SC1=Nc1cc(C)on1	101	-10	111	89
CC1=CC(=C2C(=O)NC(=O)NC2=O)C=C(C)N1c1ccccc1	-4.9*	-4	76	77
CC(C)c1ccc2occ(CC(=O)Nc3ccccc3Cl)c2c1	106	-18	102	85
CN(C)S(=O)(=O)N(CC(=O)NCCSCc1cccc(Cl)c1)c1ccccc1	104	-20	110	80
CC(C)c1noc(-c2ccccc2OCC(=O)NC(C)(C)C)n1	100	-23	·	·
Cc1ccc(Cl)cc1N1CCN(C(=O)c2cn(C)c3ccc(S(=O)(=O)N4CCCC4)cc3c2=O)CC1	103	3	100	112
Cc1ccc(/C=C/c2nc3ccccc3n2S(=O)(=O)c2ccc(Br)cc2)cc1	104	·	144	90
SMILES	GIV-Gai inh	HCMV NEC inh	Sa growth inh	Sa growth inh second temp
Cc1ccc(N2CCN(S(=O)(=O)c3cc(Br)cc4c3N(C(=O)C3CC3)CC4)CC2C)cc1 (stereo not given)	94	-4	95	85
CSC(=NCc1sccc1COc1ccc(Cl)cc1)NC#N	102	-14	105	94
CCCCCn1c(=O)[nH]c2cc(C(=O)NCCN(C)CCCC)ccc2c1=O	107	-8	118	90
CCC(C)NC(=O)C1c2ccccc2C(=O)N(C)C1c1c[nH]c2ccccc12 (stereo not given)	100	·	99	89
O=c1[nH]c2ccccc2nc1CCc1ccccc1	·	-2	101	95
COc1ccccc1NC(=O)C(=O)NCC(c1ccc2c(c1)OCO2)N1CCOCC1 (stereo not given)	100	·	109	82
Cc1ccc(C(=O)N2CCC(CC(=O)NCCCN3CCC(N4CCCCC4)CC3)CC2)cc1	101	-13	·	·
CC1CCc2c(sc(NC(=O)c3cc4nc(-c5ccco5)cc(C(F)(F)F)n4n3)c2C(N)=O)C1 (stereo not given)	95	-14	·	·
Cc1ccccc1-c1noc(COC(=O)CNC(=O)c2ccc(Cl)c(Cl)c2)n1	·	-3	107	61
CSc1sccc1/C=N/O	100	-10	106	97
Cc1c(Cl)cccc1NC(=O)CCN1CCC(C(N)=O)CC1	105	-9	101	70
COC(=O)c1sccc1NC(=O)CN1C(=O)C(C)=C(c2ccc(OC)cc2)S1(=O)=O	98	-30	·	·
CCc1cc(CC)c(CO)c(CC)c1/C=N/O	106	6	91	113
COc1ccccc1NC(=O)c1c(NC(=O)c2ccco2)sc2c1CCC(C(C)(C)C)C2 (stereo not given)	105	18	100	101
O=c1c2c3c(sc2nc2n1CCCCC2)C(O)CCC3 (stereo not given)	99	-23	108	94
Cc1cc(NC(=O)C2=C(O)c3ccccc3S(=O)(=O)N2C)no1	·	-10&-18	103	97
CCOc1ccc(NC(=O)C2CCCN2c2nnc(N3CCCC3=O)s2)cc1 (stereo not given)	106	·	102	95
CCNc1ccc2noc3c2c1C(=O)c1ccccc1-3	-48*	-188	111	104
Cc1ccc(NC(=O)CN2N=C(c3ccccc3)c3ccccc3S2(=O)=O)cc1	102	-14	·	·
COC(=O)c1c(NC(=S)Nc2ccn(C)n2)sc2c1CCCC2	109	4	100	96
COc1cc(OC)cc(-c2nc3n(n2)C(c2ccccc2)C(C(N)=O)=C(C)N3)c1 (stereo not given)	101	-18	120	81
CNC(=O)c1cn(-c2ccccc2)c(=O)c2ccccc12	104	0	·	·
CCN1CCCC1CNC(=O)CSc1c2c(nc3ccccc13)CCCC2 (stereo not given)	111	-8	99	92
COC(=O)C(C)Oc1ccc(Oc2nc(Cl)ccc2Cl)cc1 (stereo not given)	·	-8	88	105
COc1ccc(Nc2c3c(nc4ccc(NC(=O)/C=C/c5cc(OC)c(OC)c(OC)c5)cc24)CCCC3)cc1OC	100	-12	96	50

Single records, as listed above. Values in the order: GIV-Gai inh, HCMV NEC inh, Sa growth inh, Sa growth inh second temp
`COC(=O)c1c(NC(=S)Nc2ccn(C)n2)sc2c1CCCC2` as listed: 109, 4, 100, 96
`COc1cc(OC)cc(-c2nc3n(n2)C(c2ccccc2)C(C(N)=O)=C(C)N3)c1` (stereo not given) as listed: 101, -18, 120, 81
`COC(=O)C(C)Oc1ccc(Oc2nc(Cl)ccc2Cl)cc1` (stereo not given) as listed: ·, -8, 88, 105
`Cc1ccc(NC(=O)CN2N=C(c3ccccc3)c3ccccc3S2(=O)=O)cc1` as listed: 102, -14, ·, ·

(listing goes on)
SMILES	GIV-Gai inh	HCMV NEC inh	Sa growth inh	Sa growth inh second temp
CCC(=O)NNc1nc2c(OC)ccc(OC)c2s1	99	-2	82	61
COc1ccccc1-n1c(=O)c2c3c(sc2n(Cc2ccccc2F)c1=O)CN(C(C)=O)CC3	109&96	·	126	100
Cc1ccc(C)c(Cn2c(=O)cc(C)c3c(C)nn(-c4cccc(F)c4)c32)c1	104	·	87	100
O=C(NCC(c1ccc(F)cc1)N1CCOCC1)c1ccc(C(=O)c2ccccc2)cc1 (stereo not given)	·	-34	124	73
COC(CNC(=O)c1ccc2c(c1)N(Cc1ccc(Cl)cc1)CCS2)OC	96	·	101	95
O=C(Cc1cc(=O)[nH]c(=O)[nH]1)NCCN1CCOCC1	104	-6	105	98
CC1CCN(C(=O)c2cc(-c3ccncc3)nc3ccccc23)CC1	·	-57	86	85
NNC(=O)c1nsnc1-c1ccccc1O	101	-45	105	81
Cc1cccc(-c2nnc3sc(NC(=O)CC(C)C)nn23)c1	102	·	120	91
CCN1CCN(Cc2c(O)ccc3c(=O)c(Oc4ccccc4Cl)c(C(F)(F)F)oc23)CC1	99	-31	98	89
Cc1cc(C(=O)CSc2nnc(CN3CCCC3)o2)c(C)n1CCC(C)C	·	-10	86	86
Cc1ccc(S(=O)(=O)c2cn(CC(=O)Nc3ccc4c(c3)OCO4)c3ccccc3c2=O)cc1C	111	-10	98	93
O=C1CCCN1c1ccc(OCc2ccc(F)cc2)cc1	·	-16	92	95
CC1CCCN(CC(=O)Nc2ccc(Cl)c(C(F)(F)F)c2)C1 (stereo not given)	·	6	95	92
CCCOC1(NC(=O)c2ccccc2)C(C)=CC(=O)C=C1C	108	-18	85	79
CC(C)C(=O)Nc1ccc2nc(SCC(=O)N3CCc4ccccc43)sc2c1	100	18	90	96
COC(=O)Nc1nc2cc3c(cc2s1)OCCO3	103	-3	·	·
Cc1c(Cl)cccc1NC(=O)CSc1nnc(-c2cccnc2)o1	105	-26	·	·
O=C(c1cc(-c2ccco2)on1)N1CCCc2ccccc21	99	1	117	91
Cc1ccccc1OC1C(=O)N(C2CCCC2)C1c1ccc2c(c1)OCO2 (stereo not given)	93	-17	102	93
Cc1ccc2oc(=O)n(CC(=O)c3ccc(F)cc3)c2c1	102	-9	100	96
CCN(C(=O)Nc1cn(C)c(=O)c2ccccc12)c1ccccc1	102	·	99	91
CCc1ccc(NC(=O)CN(C)S(=O)(=O)c2cccc3nsnc23)cc1	101	-110	100	78
CCOC(=O)c1c(S(=O)(=O)N2CCCC(C(=O)NCc3ccccc3OC)C2)c(C)n(C)c1C (stereo not given)	102	·	109	95
CC1=NN(c2nc3ccccc3[nH]2)C(=O)C1CCC(C)C (stereo not given)	103	·	13	39

Structures listed so far with a CF3 group, in the order listed:
SMILES	GIV-Gai inh	HCMV NEC inh	Sa growth inh	Sa growth inh second temp
COc1ccc(NC(=O)c2cc3nc(-c4cccs4)cc(C(F)(F)F)n3n2)c(OC)c1	98	-8	·	·
CC1CCc2c(sc(NC(=O)c3cc4nc(-c5ccco5)cc(C(F)(F)F)n4n3)c2C(N)=O)C1 (stereo not given)	95	-14	·	·
CCN1CCN(Cc2c(O)ccc3c(=O)c(Oc4ccccc4Cl)c(C(F)(F)F)oc23)CC1	99	-31	98	89
CC1CCCN(CC(=O)Nc2ccc(Cl)c(C(F)(F)F)c2)C1 (stereo not given)	·	6	95	92

3 entries from above, arranged by molecular weight, smallest number first.
SMILES	GIV-Gai inh	HCMV NEC inh	Sa growth inh	Sa growth inh second temp
CCN(CCN)c1ccc2c(=O)[nH][nH]c(=O)c2c1	103	3	97	84
Clc1cccc(-n2ncc3c(N4CCN(Cc5ccccc5)CC4)ncnc32)c1	105	·	84	82
COc1ccc(NC(=O)c2cc3nc(-c4cccs4)cc(C(F)(F)F)n3n2)c(OC)c1	98	-8	·	·
